ClpP mod: qHTS Assay for Activators of ClpP. Potency, µM (titrated, usually from 57.5 µM), inactives show at the top dose activity change, negative = active. AID 651965, 2013. purified B. subtilis ClpP, FRET peptide cleavage, 20 min. 340,000 compounds, 1.9% hits. ATP-dependent Clp protease proteolytic subunit (Bacillus subtilis (strain 168)), P80244; active = well fitted falling curve with a large enough effect; inconclusive = small, poorly fitted or top-dose-only effect; inactive = no such curve, though single readings can be large or run the other way; further: potency means the concentration at half of the fitted maximal effect; the source files actives as falling curves though it sought activators and does not explain the sign; nearly all actives have a fitted effect of over 65% in size; many hits overshoot -100%
Target sequence (P80244 whole entry, looked up): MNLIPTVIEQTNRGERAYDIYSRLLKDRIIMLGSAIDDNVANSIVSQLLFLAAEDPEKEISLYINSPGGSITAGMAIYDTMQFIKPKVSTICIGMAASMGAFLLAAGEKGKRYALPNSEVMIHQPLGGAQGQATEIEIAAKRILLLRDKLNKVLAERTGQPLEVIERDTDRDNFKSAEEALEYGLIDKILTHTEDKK
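FRET quenching reversal measured ClpP activation: 10 microg/mL B. subtilis ClpP at pH 8 with the FRET-FV decapeptide, read at 430 nm after 320 nm excitation. The 20-min minus 0-min signal was scaled between DMSO/no-enzyme wells and ADEP (5.8 microM final).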
gsp antag: antagonists of gsp mutant (McCune-Albright syndrome). gsp-mutant cells, cAMP HTRF, 30 min; control for the full effect not named in the record. Potency, µM (series often up to 76.9 µM), inactives show at the highest dose activity change, negative = inhibition, most hits filed as inhibitors. 340,000 compounds, 0.4% hits; active = falling curve of any shape with a large fitted effect; inconclusive = falling curve, mostly with a smaller effect; inactive = flat or rising curve; cell line not stated here;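 further: intracellular cAMP measured with PDE inhibitor Ro 20-1724 present during compound exposure; potency means the concentration at half of the fitted maximal effect; on the % scale 0 is the no-effect control and ±100 the full control effect; nearly all actives have a fitted effect of over 65% in size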
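Measurement of cellular cAMP by homogeneous time-resolved fluorescence following a 30 min compound exposure at 37C. The PDE inhibitor […] was present throughout; the assay buffer was DPBS with 0.05% BSA and 0.005% Tween 20.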
gsp ag: gsp mutant agonism; Potency, µM (top dose mostly 76.9 µM), inactives show at the highest dose activation (cAMP increase), actives largely listed as activators; gsp mutant cells, cAMP HTRF, 30 min; control for the full effect not named in the record; AID 624287; 340,000 compounds, 0.13% hits; active = well fitted activation curve with a large enough effect; inconclusive = small, poorly fitted or top-dose-only effect, or another doubt; inactive = no such curve, though single readings can be large or run the other way; cell line not stated here;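 further: phosphodiesterase inhibitor Ro 20-1724 added with compounds to block cAMP breakdown; potency means the concentration at half of the fitted maximal effect; nearly all actives have a fitted effect of over 60% in size; about a fifth of the inactives were tested at one dose only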
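Cells stably selected in G418 were plated at 2000/well, grown 16-24 hr, then given compounds in DMSO with the PDE inhibitor […] (300 uM solution added) for 30 min at 37C; cAMP was read by HTRF.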
TRPML1 agonist: activates the human TRPML1 channel; TRPML1-expressing cells, Ca2+ dye fluorescence, FDSS; host cell line not named in the record; reference of the full effect not given here; activation, % (no concentration beside the values); 410,000 compounds, 0.12% hits; in the data active = activation above about 50%; inconclusive = about 30% to 50%; inactive = below about 30%; further: 0% is about no effect; the text of the record puts the active cut at 80%
Target sequence (Q9GZU1 whole entry, looked up): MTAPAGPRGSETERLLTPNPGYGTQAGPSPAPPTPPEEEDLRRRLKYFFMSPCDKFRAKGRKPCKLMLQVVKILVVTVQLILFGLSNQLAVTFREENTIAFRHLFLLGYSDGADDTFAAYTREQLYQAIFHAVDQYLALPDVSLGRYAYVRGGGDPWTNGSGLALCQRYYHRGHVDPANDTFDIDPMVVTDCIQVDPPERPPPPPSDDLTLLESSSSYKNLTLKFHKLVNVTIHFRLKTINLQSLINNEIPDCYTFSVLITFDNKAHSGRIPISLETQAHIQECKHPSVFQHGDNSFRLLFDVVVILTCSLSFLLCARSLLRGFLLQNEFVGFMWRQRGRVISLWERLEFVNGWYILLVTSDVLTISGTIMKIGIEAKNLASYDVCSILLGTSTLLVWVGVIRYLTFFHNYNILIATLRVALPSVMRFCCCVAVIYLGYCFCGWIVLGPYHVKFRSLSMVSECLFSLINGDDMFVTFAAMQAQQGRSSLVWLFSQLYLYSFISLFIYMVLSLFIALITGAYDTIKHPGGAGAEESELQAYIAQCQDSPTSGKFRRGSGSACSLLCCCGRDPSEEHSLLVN
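In this qHTS format, compounds were pin-transferred onto Ca8-dye-loaded TRPML1-DL cells induced with Tet overnight, and intracellular Ca2+ fluorescence was recorded kinetically for 110 s after a 10 s baseline. A subsequent 4uM final 54-4 (EC80) addition followed by a second 110 s read served as the antagonist phase.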
TRPML1 blocker: blocks the human TRPML1 channel | TRPML1-inducible cells, Ca2+ dye fluorescence, FDSS; stronger effect = lower value; inhibition of EC80 agonist-evoked calcium signal | AID 624415 | 390,000 compounds, 0.02% hits | activity change, negative = inhibition, % (test concentration not listed); in the data active means activity change below about -50%; inconclusive means about -30% to -50%; inactive means above about -30%;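 further: stimulus is agonist 54-4 at its EC80 concentration; on the % scale 0 is the no-effect control and ±100 the full control effect; compound concentration not given in the record; the text of the record puts the active cut at -80%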
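Tet-induced TRPML1-DL cells loaded with Ca8 no-wash calcium dye were read kinetically on FDSS. Compound addition was followed by EC80 agonist 54-4 (4 uM final); inhibition was read over 110 s.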
Menin-MLL FL inh: menin-MLL binding inhibition, fluorescein peptide; 290,000 tested, under 10 active; Fluorescence polarization, fluorescein-MLL peptide displacement from menin; FP activity change, % at 61.4 µM; inconclusive = falling polarisation curve, or a change in total fluorescence; inactive = total fluorescence flat and polarisation flat or rising; no compound was filed as active; the % refers to the polarisation; negative = inhibition;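 further: % of control where 0% means no effect; inhibitors lower the polarisation; unlabelled MLL peptide was the positive control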
Active calls of the source: *; ? = inconclusive; . = not tested or not shown; & = joins results of further samples; [ ] = dose if it differs, or a comment.

SMILES	ClpP mod	gsp antag	gsp ag	TRPML1 agonist	TRPML1 blocker	Menin-MLL FL inh
O=C(COC(=O)C12CC3CC(CC(C3)C1)C2)NC12CC3CC(CC(C3)C1)C2	-0.9%	-7%	-5%	0.2	61	-0.2
NC(=O)CC(NC(=O)c1ccc(Br)cc1)c1ccc(N2CCC(Br)CC2)c([N+](=O)[O-])c1 (centres undefined)	-3.9%	0%	.	0.5	20	0.6
COc1ccc(-c2cc(-c3nnc(COC(=O)CC4CC5CCC4C5)o3)c3ccccc3n2)cc1OC (centres undefined)	?	-5%	6%	0.3	4	12
O=C(C1CC(=O)N(c2ccccc2F)C1)N1CCOCC1 (centres undefined)	1.3%	1%	3%	-0.8	1	.
CC(=O)OC1C(N2CCCCC2)c2c(ccc(/C=C/C(=O)N3CCCCC3)c2O)OC1(C)C (centres undefined)	.	4%	5%[15.4 µM]	1.8	8	1.0
C=CC(=O)Nc1ccc(CN2C(=O)N(c3c(Cl)c(OC)cc(OC)c3Cl)Cc3cnc(NCCCCN(CC)CC)nc32)cc1	-9.2%	-11%	.	-0.6	-2	.
Cc1cc(C)c(C(=O)COC(=O)C2CCN(c3ccc(C(F)(F)F)cn3)CC2)cc1C	-11%	7%	4%	0.5	-6	.
COc1cc(OC)cc(C2=NC3(CCC(C)CC3)NC2=S)c1 (centres undefined)	.	-11%	-17%[15.4 µM]	0.1	-7	-5.3
C/C(CC(=O)Nc1c(Cl)cccc1C(F)(F)F)=N\NC(=O)c1cnccn1	0.5%	-10%	4%	1.0	7	.
CC(=O)NC(CCS(C)(=O)=O)C(=O)Nc1cccc(C)c1C (centres undefined)	0.4%	12%	?	0.0	1	-1.2
CCOc1ccc(NS(=O)(=O)c2ccc3[nH]cc(C(=O)N(C)Cc4ccccc4)c(=O)c3c2)cc1	-14%	.	.	2.8	-8	.
O=C(COC(=O)CCCCCN=C1NS(=O)(=O)c2ccccc21)Nc1ccc(Cl)c(Cl)c1	.	-18%	5%[15.4 µM]	0.3	10	3.5
CCCCCn1c(=O)c(C(=O)c2ccccc2)nc2ccccc21	-2.1%	?	-23%	2.2	16	-0.2
Cc1ccc(OCC(=O)NCC2(N3CCN(C)CC3)CCCCC2)cc1	1.1%	.	.	2.0	21	.
COc1ccc(C(=O)Nn2cnnc2)cc1OC	.	7%	8%	0.3	-18	2.0
CCOC(=O)COc1c(Cl)cc(C2NC(=S)NC(c3ccccc3)=C2C(C)=O)cc1OC (centres undefined)	0.8%	-17%	-8%	1.2	-3	2.8
CC(CNC(=O)CCCn1c(=O)c2cccn2c2ccc(F)cc21)c1ccccc1 (centres undefined)	-17%	.	.	3.4	13	.
O=c1c2ccccc2nc(SCc2nc(-c3ccccc3)no2)n1-c1ccc(F)cc1	-1.5%	7%	18%	0.8	-2	4.1
CCCC(=O)Nc1c(C)nn(C(=O)CCC)c1C	-1.1%	5%	21%	-0.2	-20	-0.1
Cc1ccc(NC(=O)c2[nH]cnc2C(=O)NN)cc1	-0.1%	-5%	?	1.4	-7	-3.5
Cc1cc(C)n(-c2ccc(C(=O)OCC(=O)N(CC(C)C)C3CCS(=O)(=O)C3)cc2)n1 (centres undefined)	-0.4%	5%	-21%	0.5	27	3.4
CCOc1cc([N+](=O)[O-])cc(/C=C2/NC(=O)N(Cc3ccccc3F)C2=O)c1O	1.8%	?	?	0.3	18	-0.5
CCn1c(CSc2nnc(C)n2-c2ccccc2)nc2cc(S(=O)(=O)N(C)C)ccc21	1.9%	5%	-22%	0.6	-4	-2.2
CCCNC(=O)N(CCOC)CC1CCCN(C2Cc3ccccc3C2)C1 (centres undefined)	.	5%	2%	-0.3	-15	-6.9
Cc1ccccc1NC(=O)Cc1nc(COC(=O)c2nc(Cl)ccc2Cl)cs1	-0.7%	-6%	-30%[inhibitor]	-1.4	-2	.
CCOc1ccc(C(=O)NCC(=O)OCC(=O)N2CCC(C)CC2)cc1	-0.5%	-7%	-1%	0.3	3	-1.3
O=C(Nc1ccccn1)c1ccc(Cl)c(S(=O)(=O)N2CCCCCC2)c1	.	-4%	-56%[15.4 µM]	0.3	-2	.
Cc1ccn2cc(CNC(=O)c3cccc(C(F)(F)F)c3)nc2c1	-14%	.	.	0.1	-3	.
Cc1c(NC(=O)C(C)OC(=O)/C=C/c2ccco2)c(=O)n(-c2ccccc2)n1C (centres undefined)	-1.4%	3%	0%[15.4 µM]	-1.5	-6	-7.5
CCOC(=O)c1ccc(Nc2nc(C)cc(=O)[nH]2)cc1	-23%	2%	-70%[inhibitor]	-0.2	-8	-2.3

Three entries already listed, ordered by length of the SMILES, lowest first:
SMILES	ClpP mod	gsp antag	gsp ag	TRPML1 agonist	TRPML1 blocker	Menin-MLL FL inh
COc1ccc(C(=O)Nn2cnnc2)cc1OC	.	7%	8%	0.3	-18	2.0
Cc1c(NC(=O)C(C)OC(=O)/C=C/c2ccco2)c(=O)n(-c2ccccc2)n1C (centres undefined)	-1.4%	3%	0%[15.4 µM]	-1.5	-6	-7.5
CCOc1ccc(NS(=O)(=O)c2ccc3[nH]cc(C(=O)N(C)Cc4ccccc4)c(=O)c3c2)cc1	-14%	.	.	2.8	-8	.

More records follow.
SMILES	ClpP mod	gsp antag	gsp ag	TRPML1 agonist	TRPML1 blocker	Menin-MLL FL inh
CCOC(=O)c1c(C2CC2)csc1NC(=O)CSCc1c(C)noc1C	-2.7%	27%	15%	2.9	-9	2.0
COc1cc(C2c3c(oc4cc(C)c(C)cc4c3=O)C(=O)N2CCCN2CCOCC2)ccc1O (centres undefined)	-2.3%	.	.	-0.3	-8	.
O=S(=O)(c1ccc(Cl)c(C(F)(F)F)c1)N1CCN(CC(O)COCC2CCCO2)CC1 (centres undefined)	-0.1%	-11%	-2%	-1.0	1	0.1
Cn1ccsc1=NC(=O)c1ccc([N+](=O)[O-])o1	0.0%	2%	?	-0.4	24	.
CCc1nc(SCc2cc(=O)c3cc(F)ccc3[nH]2)n[nH]1	-3.4%	.	.	4.0	21	.
C/C(N)=C(/C#N)C(=O)COC(=O)CCC1CCCC1	-0.2%	11%	-1%	1.9	7	0.8
C1=CC2c3ccccc3NC(c3ccncc3)C2C1 (centres undefined)	-1.4%	-3%	?	0.1	5	?
O=S(=O)(Nc1ccc(-c2ccc3nncn3n2)cc1)c1cccc(F)c1	0.1%	-2%	-28%	0.1	-4	.
CCCCC[C@H]1CN(CCCC)C(=O)[C@@H]1CC(=O)NCc1ccc(OC)cc1	1.9%&15%	-7%	-27%	-0.4&0.1	6	0.1
CCN(C(=O)Cn1c(C(=O)OC)cc2oc3ccccc3c21)c1cccc(C)c1	4.4%	.	.	-0.7	0	.
Cc1ccccc1C(=O)NCC(=O)c1ccccc1	-0.2%	4%	-24%	0.3	-20	.
Cc1cc(NC(=O)CSc2nnc(Nc3ccccc3C)s2)no1	1.0%	-6%	-8%	.	.	7.6
COc1ccc(CCNC(=O)CCNC(=O)c2ccco2)cc1	-0.1%	20%	-30%	0.7	-5	.
CCN1CCN(C(=O)c2ccc(OC3CCN(CCc4ccccc4)CC3)cc2)[C@@H](C)C1=O	1.6%	7%	14%[15.4 µM]	0.9	-3	.
CC(=O)N(C(C)=O)S(=O)(=O)c1ccc(N=NN2CCCCC2)cc1	-0.3%	-30%	7%[15.4 µM]	0.0	9	-1.4
CC(=O)NC(CC(=O)N(C)Cc1cccc(Cl)c1Cl)c1ccccc1 (centres undefined)	1.1%	-1%	-3%[15.4 µM]	1.3	-2	-2.9
CCCC(=O)Nc1nc2ccc(S(N)(=O)=O)cc2s1	-8.9%	2%	-72%[inhibitor]	-0.5	-22	-0.3
Cc1nn(-c2ccccc2)nc1-c1nnc(-c2ccc(C(F)(F)F)cc2)o1	-0.1%	11%	4%[15.4 µM]	-0.7	-4	1.5
CCOC(=O)C1CCCN(C(=O)c2cc3nc(-c4cccc(OC)c4)cc(C(F)(F)F)n3n2)C1 (centres undefined)	-11%	-24%	-67%[inhibitor]	2.1	15	4.2
O=C(Nc1ccccc1O)c1ccc2c(c1)C(=O)N(c1ccccc1)C2=O	-0.2%	-8%	4%[15.4 µM]	-0.5	-4	-0.8
Cc1cc(C)c(NC(=O)CN2C(=O)CC(C)S(=O)(=O)c3ccccc32)c(C)c1 (centres undefined)	-1.2%	8%	2%	-0.5	1	0.2
CC(=O)N(Cc1cccnc1)Cc1cc2ccccc2[nH]c1=O	?	7%	4%	0.6	5	0.2
NS(=O)(=O)c1ccc(NC=C2C(=O)OC3(CCCCC3)OC2=O)cc1	-7.4%	8%	1%	0.4	-3	-1.3
O=C(O)c1ccc(COc2c(F)c(F)cc(F)c2F)cc1	-1.0%	-4%	-18%	-0.8	1	4.5
CCOC(=O)C(CSCc1ccccc1)NC(=O)OC(C)(C)C (centres undefined)	-3.0%	-14%	0%	1.7	-22	-0.4
Cc1ccccc1OCC(=O)Nc1ccc(C(=O)OCc2cc(=O)n3c(C)csc3n2)cc1	1.4%	.	.	0.7	-10	.
Cc1c(OCC(=O)NC(Cc2c[nH]c3ccc(O)cc23)C(=O)O)ccc2c3c(c(=O)oc12)CCC3 (centres undefined)	.	3%	-13%[15.4 µM]	0.3	3	2.8
C=CCN(c1nc(C)c(Br)c(OC)n1)S(=O)(=O)c1ccc(C)cc1	1.8%	-2%	?	1.3	21	-6.3
COc1ccc(N2C(=O)CC(Sc3ncccc3C(=O)O)C2=O)cc1 (centres undefined)	0.6%	1%	-4%	-0.1	-4	-2.2
CCN1CCN(C(=O)c2ccc(CNS(=O)(=O)c3cccc(OC)c3)cc2)CC1	0.3%	5%	6%	-0.3	1	.
O=C(c1cccn2c(=O)c3ccccc3nc12)N1CCN(Cc2ccc3c(c2)OCO3)CC1	?	-14%	28%	0.3	-7	4.1
COCCNc1cc(C)nc2c3c(C)cc(C)nc3nn12	85%	3%	-2%	15	-13	-1.5
C=C1C(=O)O[C@H]2C[C@]3(C)C([C@@H](OC(=O)/C(C)=C/C)[C@H]12)[C@](C)(O)CC[C@H]3O (some centres undefined)	1.2%	4%	-19%	-0.6	16	2.7
O=[N+]([O-])c1cccc(/C=N/Nc2ncc(Br)cn2)c1	0.5%	5%	-16%	.	.	-0.6
CCn1c(SCC(=O)c2ccc(Cl)cc2)nnc1C(C)C	0.9%	23%	15%	-0.1	-2	1.5
Cc1cc(C)c(NC(=O)CN2c3ccccc3S(=O)(=O)c3ccccc32)c(C)c1	4.4%	.	.	1.6	-28	.
CCn1c(=O)c2cc(C(=O)N3CCN(C)CC3)sc2c2ccccc21	4.3%	14%	-16%	0.0	6	2.4
COc1cc(-c2csc(NC3CCCCC3)n2)cc(OC)c1OC	.	2%	3%[15.4 µM]	1.3	-9	1.5

High-throughput results (PubChem)
